Screening data (PubChem)
Arbovirus anti: antivirals against arbovirus infection; arbovirus infection cell-based antiviral screen; inhibition, % at 10 µM; 200,000 compounds, 0.37% hits;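 active means inhibition from about 30%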;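 further: bluetongue infection of BSR cells; cell survival read as ATP light after 72 h; 0% = infected wells without compound and 100% = uninfected wells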
Mtb H37Rv: M. tuberculosis H37Rv growth inhibitors, H37Rv strain (AID 1626); M. tuberculosis H37Rv growth inhibition; higher % means a stronger effect; inhibition, % at 10 µM, or IC50 in µM where a hit was titrated; 220,000 compounds, 0.95% hits;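 active means confirmed in a dose series; inconclusive means inhibition above 80% but not taken into the dose series; inactive means below 80% or under 30% at every dose of the series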;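 further: bacteria incubated seven days before Alamar blue readout; 0% = bacteria only wells and 100% = bacteria with antibiotic wells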
YopH PTP inh: YopH (Yersinia) phosphatase inhibition. fluorescence Ex485/Em525. inhibition, %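 (about 10 µM by stock and volumes)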. 140,000 compounds, 0.16% hits;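 active means inhibition of 50% or more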;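 further: controls were vehicle for no effect and minimum signal wells for full effect; inactives centre near -20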
Mtb bLac sens: beta-lactam sensitization of Mtb H37Rv; M. tuberculosis H37Rv growth with meropenem, percent inhibition; hits of this screen are not shown here; 330,000 compounds, 0.27% hits; inhibition, % at 25 µM;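 active means about 74% or more and at least 40 points above the plate without the antibiotic, then above 30% in a dose series; inconclusive means first-round hits that could not be retested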;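 further: growth measured after seven days incubation then overnight dye step; 0% = bacteria only wells and 100% = bacteria with antibiotic; twin plates without the antibiotic show which effects depend on it; some results filed as inactive read as strong as hits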
RecA splice inh: inhibitors of M. tuberculosis RecA intein splicing | cell-free RecA intein splicing, fluorescence | 290,000 compounds, 0.75% hits | P9WHJ3 | AID 2221 | inhibition, %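 (about 9 µM by stock and volumes)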; in the data active means inhibition above about 30%; inconclusive means no clear call, values can overlap the other calls;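 further: 0% = vehicle wells and 100% = reference inhibitor control wells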
Target sequence (P9WHJ3 whole entry, looked up, canonical isoform): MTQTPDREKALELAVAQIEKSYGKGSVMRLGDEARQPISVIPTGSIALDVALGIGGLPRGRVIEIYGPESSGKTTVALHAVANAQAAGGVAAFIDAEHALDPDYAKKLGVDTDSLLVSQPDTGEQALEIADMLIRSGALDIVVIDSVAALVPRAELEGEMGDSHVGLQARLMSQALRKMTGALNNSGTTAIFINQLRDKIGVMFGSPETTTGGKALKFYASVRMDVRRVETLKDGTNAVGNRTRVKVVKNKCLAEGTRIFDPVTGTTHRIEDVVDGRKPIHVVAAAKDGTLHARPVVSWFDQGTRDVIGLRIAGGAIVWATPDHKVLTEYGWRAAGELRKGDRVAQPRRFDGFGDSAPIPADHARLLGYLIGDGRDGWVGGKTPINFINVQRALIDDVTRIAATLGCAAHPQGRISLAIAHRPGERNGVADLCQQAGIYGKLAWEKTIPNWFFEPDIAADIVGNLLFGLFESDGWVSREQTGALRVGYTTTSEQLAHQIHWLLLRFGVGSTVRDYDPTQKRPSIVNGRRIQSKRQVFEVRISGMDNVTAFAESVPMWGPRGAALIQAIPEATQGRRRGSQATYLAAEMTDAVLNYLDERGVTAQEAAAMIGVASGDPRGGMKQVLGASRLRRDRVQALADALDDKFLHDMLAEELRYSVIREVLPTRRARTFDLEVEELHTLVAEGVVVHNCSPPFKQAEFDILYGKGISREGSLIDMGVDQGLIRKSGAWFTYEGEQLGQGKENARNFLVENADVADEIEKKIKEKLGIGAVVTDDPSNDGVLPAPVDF
Arbovirus anti repeat: second read-out of Arbovirus anti, no call of its own (marks repeat the call); inhibition, %; measured here: 10K subset replicate screen; many hits read low in the repeat;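 first of two repeat runs on a subset; 0% = infected and 100% = uninfected wells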
Starred values were filed as active, the others as inactive; ? = inconclusive; / = not tested or not shown; & = joins results of further samples. Not all compounds are listed; rates above refer to the full screens.

SMILES	Arbovirus anti	Mtb H37Rv	YopH PTP inh	Mtb bLac sens	RecA splice inh	others
CSc1snnc1-c1ccccc1	-1	0%	/	-3	-1.0
CCOC(=O)c1ccc2nc(C(F)(F)F)[nH]c(=O)c2c1	11	1%	-28	10	/
CN=Cc1sc2ccccc2c1O	0	9%	-52	11	-2.3
Cc1cccc(NC(=O)C(CCC(N)=O)NC(=O)OCc2ccccc2)c1 (stereo not drawn)	/	/	/	6	-0.4
CC(C)(C)NC(=O)C(c1ccncc1)N(C(=O)CNC(=O)c1ccco1)c1ccc(F)cc1 (stereo not drawn)	/	/	/	-3	-6.4
C/C(=N/NS(=O)(=O)c1cccc([N+](=O)[O-])c1)c1ccc2c(c1)OCO2	/	/	/	-4	0.5
CC(=O)C1C(=O)C=C(c2cccs2)CC1c1ccccc1 (stereo not drawn)	1	3%	/	-1	-5.0
CSc1nc(NC(C)(C)C)nc(Oc2ccc(=O)n(C)n2)n1	-2	1%	-39	0	-0.7
COc1ccc(-c2nnc3sc(COc4ccccc4)nn23)cc1	-15	15%	-27	30	3.5
CN1CCN(CC(=O)Nc2nc3c(s2)CCCC3)CC1	/	3%	/	-3	-1.6
COC(=O)C(C)NC(=S)N1CCN(c2c(F)cc3c(=O)c(C(=O)O)cn(C4CC4)c3c2OC)CC1C (stereo not drawn)	/	?	/	100	4.3
Cc1cc(Br)ccc1SCC(=O)OCC(=O)NC(C)c1ccccc1 (stereo not drawn)	5	-2%	-25	4	6.1
CCC(=O)Nc1ccc(C(=O)NNC(=O)COc2cc(C)ccc2C)cc1	-5	2%	-31	2	-4.5
Cc1ccc(NC(=O)[C@@H]2CCCN2S(=O)(=O)c2ccccc2F)cc1S(=O)(=O)N1CCOCC1	-3	2%	-11	1	1.7
COc1ccc(OC)c(S(=O)(=O)NCCC(C)C)c1	9	-5%	/	-1	/
C=C1C[C@@H]2[C@H](CC[C@]3(C)C(=O)CC[C@@H]23)[C@@]2(C)C=CC(=O)C=C12	1	-6%&-4%	/	16	1.7
COc1cc(CNCc2ccccc2)c(Br)cc1OC1CCCC1	-7	58%	/	68	1.3
COc1cccc(CN(C)C(=O)c2cc(-c3cccs3)nc3ccccc23)c1	/	/	/	-1	11
Cn1nc(-c2ccc(C(=O)N3CCN(Cc4ccccc4)CC3)cc2)c2ccccc2c1=O	5	-7%	1	-4	1.4
CCc1ccc(NS(=O)(=O)c2ccc3[nH]cc(C(=O)N4CCc5ccccc54)c(=O)c3c2)cc1	17	-2%	0	1	4.7
CN1CCN(C(=O)C2=C[C@H](C(C)(C)C)C[C@H](OCCCCO)O2)CC1	1	-8%	/	-12	-2.7
COC(=O)c1cc(C(=O)OCC(=O)Nc2cc(C)on2)cc([N+](=O)[O-])c1	/	-6%	/	1	/
O=C(O)c1ccc(C2SCC(=O)N2Cc2ccco2)cc1 (stereo not drawn)	1	-8%	/	-10	-1.7
O=C(NCC(O)COc1ccc([N+](=O)[O-])cc1)c1ccccc1 (stereo not drawn)	/	2%	/	-2	-0.1
CNC(=O)c1nnn(-c2ccccc2)c1C(=O)NC	-5	-12%	-35	-4	-2.3
Cn1c(SCc2ccc(Cl)cc2)nnc1C1CC1	8	-2%	/	-3	3.2
O=S(=O)(c1cnc[nH]1)N1CCN(c2ccccc2)CC1	7	-5%	-42	-2	-4.7
CCOc1ccc(CNc2ncc(-c3ccccc3)n2C)cc1	/	/	/	4	-1.5
COc1cccc(C(=O)Nc2cc([N+](=O)[O-])ccc2N2CCN(C)CC2)c1	12	-6%	-33	-9	0.7
S=c1[nH]nc(-c2cccnc2)n1Cc1ccccc1	5	-5%	11	-1	-4.5
N#CCSc1nnc(Nc2ccccc2)s1	-1	-7%	-8	-4	-1.4
Cc1onc(-c2ccccc2)c1C(=O)N/N=C/c1ccc([N+](=O)[O-])c(O)c1	/	/	/	10	-0.5
CCN(CC)c1ccc(NC(=O)CCc2nnc3ccc(N4CCCCC4)nn23)c(C)c1	/	/	/	-3	1.5
CCCCc1c(C)nc(N2CCCC2)[nH]c1=O	/	2%	/	-8	/
Cc1cc(C)cc(OCC(=O)NC2=NCCS2)c1	-2	-9%	32	-3	/
CCOC(=O)C1=C(O)/C(=C/c2ccc(OCC(=O)O)c(OC)c2)SC1=Nc1ccc(OCC)cc1	0	15%	-46	84	-1.1
O=C(Nc1ccccc1)/C(=C/c1cccc(Br)c1)NC(=O)c1ccco1	-4	4%	-24	4	-0.5
CCc1ccc(NC(=S)NC2CC3CCC(C2)N3Cc2ccco2)cc1 (stereo not drawn)	14	-2%	-21	11	8.4
O=C(Cc1ccccc1)Nc1ccc(CN2CCOCC2)cc1	-3	-5%	-24	-6	-1.4
COc1ccc(CNC(=O)CSc2nc(SC)ns2)cc1	/	/	/	88	0.2
COCCn1c(-c2ccc(OC)cc2)nc2oc3cc(OC)ccc3c(=O)c2c1=O	-5	-2%	13	-8	5.3
CCSc1ccccc1C(=O)N1CCCC1	-4	-9%	19	-5	-1.7
C=CCNC(=O)C1CC(=O)N(c2ccc(OCC(=O)Nc3ccc(C)cc3)cc2)C1 (stereo not drawn)	5	-2%	-6	-2	4.1
O=C(CSCc1ccc(F)cc1)Nc1nc2c(s1)CCCC2	1	-2%	-16	1	5.5
CC(NC(=O)CN1CCN(c2cccc(Cl)c2)CC1)c1ccccc1 (stereo not drawn)	/	/	/	-3	1.7
Cc1cc(Br)ccc1NC(=O)CN(C)C(=O)C1CCN(C(=O)c2ccc(F)cc2)CC1	/	/	/	-1	-0.6
c1csc(-c2nnc(COc3ncnc4sccc34)o2)c1	/	-13%	/	3	-1.8
COc1ccc(NC(=O)/C=C/C(=O)O)c(OC)c1	/	-6%	/	-4	-0.8
CSc1cccc(NC(=O)c2sc3nc4n(c(=O)c3c2C)CCC4)c1	/	/	/	11	-1.1
CC(C)C/C(O)=C/c1nc2cc(Cl)ccc2oc1=O	-5	50%	-23	93	1.6
O=C(Nc1ccncc1)c1ccccc1F	10	6%	-32	-3	2.2	Arbovirus anti repeat=9
COc1cccc(N=CC2=C(O)CCCC2=O)c1	-11	-8%	/	-8	2.3
CC(C)(C)C(=O)O/N=C(\N)COc1cccc(Cl)c1	/	3%	/	-16	1.4
CC(=O)CC(=O)Nc1nc(C)cc(C)n1	9	4%	/	0	0.2
CCOC(=O)N1CCN(C(=O)c2c(Cl)cnn2C)CC1	/	/	/	1	-0.3
CCc1cccc(CC)c1NC(=O)COC(=O)CCc1cc(OC)c(OC)c(OC)c1	-2	-5%	-17	-1	0.4
COc1ccc(OC)c(NC(=O)N[C@@H](Cc2ccccc2)C(=O)O)c1	6	-5%	-54	-6	-0.7
CN1CN(C)c2ccc([N+](=O)[O-])c3cccc1c23	/	/	/	-5	0.1
Cc1ccc(OCc2ccc(C(=O)Nc3cc(C)on3)o2)c([N+](=O)[O-])c1	/	/	/	-9	0.1
Cc1cc(NC(=O)CCCC(=O)OCC(F)(F)C(F)F)cc(C)c1C(=O)O	9	-2%	-48	1	-0.1
Next part.
SMILES	Arbovirus anti	Mtb H37Rv	YopH PTP inh	Mtb bLac sens	RecA splice inh	others
CCC1=NN2C(=N)/C(=C\c3cccn3-c3ccc(C)cc3C)C(=O)N=C2S1	39*	10%	/	4	15
Cc1cc(C)n(NC(=S)NC2CCCC2)c(=O)c1C#N	/	-11%	/	-2	1.0
Cc1cccc(Nc2nc(N)nc(CN3CCN(c4ccccc4)CC3)n2)c1	9	40%	-25	65	2.2
Cn1c(=O)c2c(nc(OCc3cccnc3)n2Cc2ccccc2)n(C)c1=O	14	2%	-9	0	-0.7
Cc1ccc([N+](=O)[O-])cc1NC(=O)CSc1nnc(C)n1CC1CCCO1 (stereo not drawn)	/	/	/	1	-1.5
Oc1ccccc1CNCCCNCc1ccccc1O	44*	-9%	-35	3	-2.1
Cc1onc(-c2ccccc2)c1C(=O)N1CCN(S(=O)(=O)c2ccccc2C(F)(F)F)CC1	/	/	/	3	1.6
Cn1cccc1/C=N/N1CCN(Cc2ccccc2Cl)CC1	/	6%	/	0	0.8
O=C(CCNC(=O)c1ccc(Br)cc1)Nc1ccccc1N1CCOCC1	/	/	/	2	1.5
COCCCNC(=O)c1c(NC(=O)c2ccco2)n(Cc2ccccc2)c2nc3ccccc3nc12	-2	6%	-11	12	-72
Cc1cccc(N2CCN(C(=O)CCn3c(=S)[nH]c4cc5c(cc4c3=O)OCO5)CC2C)c1 (stereo not drawn)	3	-3%	9	86	3.0
CCOC(=O)c1c(C)n(-c2ccc(C)cc2)c2ccc(OCC(O)CN3CCN(C)CC3)cc12 (stereo not drawn)	-34	-3%	/	/	/
Cn1nccc1C(=O)Nc1ccc(OC(=O)c2ccnn2C)cc1	-12	-2%	-11	-8	1.4
O=C(Oc1ccc2c(c1)O/C(=C\c1ccncc1)C2=O)c1cccs1	/	3%	/	-7	24
CN1CCN(C(=O)/C(=C/c2cccc([N+](=O)[O-])c2)NC(=O)c2ccccc2)CC1	/	/	/	-1	-1.4

Molecules above with an NH in an aromatic ring:
SMILES	Arbovirus anti	Mtb H37Rv	YopH PTP inh	Mtb bLac sens	RecA splice inh	others
CCOC(=O)c1ccc2nc(C(F)(F)F)[nH]c(=O)c2c1	11	1%	-28	10	/
CCc1ccc(NS(=O)(=O)c2ccc3[nH]cc(C(=O)N4CCc5ccccc54)c(=O)c3c2)cc1	17	-2%	0	1	4.7
O=S(=O)(c1cnc[nH]1)N1CCN(c2ccccc2)CC1	7	-5%	-42	-2	-4.7
S=c1[nH]nc(-c2cccnc2)n1Cc1ccccc1	5	-5%	11	-1	-4.5
CCCCc1c(C)nc(N2CCCC2)[nH]c1=O	/	2%	/	-8	/
Cc1cccc(N2CCN(C(=O)CCn3c(=S)[nH]c4cc5c(cc4c3=O)OCO5)CC2C)c1 (stereo not drawn)	3	-3%	9	86	3.0

More structures.
SMILES	Arbovirus anti	Mtb H37Rv	YopH PTP inh	Mtb bLac sens	RecA splice inh	others
O=C(CCN1C(=O)/C(=C\c2ccco2)SC1=S)Nc1ccc(C(=O)O)c(O)c1	/	/	/	7	26
CC(=O)c1ccccc1OCC(O)CNC1CCCC1 (stereo not drawn)	/	/	/	0	-0.5
COC(=O)C1(C)NC(c2ccc(F)cc2)C2C(=O)N(c3ccccc3)C(=O)C21 (stereo not drawn)	/	/	/	-3	-0.1
Cc1cnc(C(=O)Nc2ccc(F)c(F)c2)cn1	-2	5%	-21	-5	2.3
CC1CC(C)(C)NC(C)c2ccccc21 (stereo not drawn)	5	-3%	-39	-2	2.2
C=CCNc1ncnc2c1cnn2-c1ccc(Cl)cc1	4	12%	-37	3	1.6	Arbovirus anti repeat=1
CCOC(=O)C(NC(C)=O)C(OC(C)=O)c1cccc([N+](=O)[O-])c1 (stereo not drawn)	-2	3%	-52	3	-1.9
O=C(CSc1ccc(Cl)cc1)Nc1ccc(-c2nc3ccccc3[nH]2)cc1	-14	0%	3	-2	1.1
Cc1nn(C(C)(C)C)c(NC(=O)c2ccc(Cl)cc2)c1Br	/	-8%	/	-1	-1.5
COC(=O)c1cccc(NC(=O)C2C3CCC(C3)C2C(=O)O)c1 (stereo not drawn)	5	-21%	14	-12	0.1
O=C(Nc1cccc(C(F)(F)F)c1)c1cccc(NS(=O)(=O)c2ccc(Br)c(C(=O)O)c2)c1	9	-11%	/	-1	2.8
CCOC(=O)c1c(C(=O)OCC)c(C)n(N2C(=O)CSC2=S)c1C	1	-23%	-55	-7	2.1
Cc1cc(C)cc(C(=O)Nc2ccc(NC(=O)Cc3ccccc3)cc2)c1	-1	4%	/	3	-0.9
C#CCOCCOCCOCCNc1nc(N2CCN(C(=O)[C@H](CCC(=O)O)n3cc(C(N)CO)nn3)CC2)nc(N2CCN(C(=O)[C@H](CCCCN)n3cc(C(N)[C@H](C)CC)nn3)CC2)n1 (stereo partly drawn)	/	-12%	/	/	0.7
COc1ccc(CNC(=O)C2CCCN2S(=O)(=O)c2ccccc2)cc1 (stereo not drawn)	4	-12%	-39	-10	0.4
COc1ccc(C)cc1NC(=O)CN1CCCN(S(=O)(=O)c2ccc(Br)cc2)CC1	/	/	/	4	15
COc1cccc(S(=O)(=O)Nc2ccc(C(=O)Nc3ccncc3)cc2)c1	-5	10%	4	2	1.2
CC(C)c1nnc(NC(=O)Cc2cccs2)s1	-2	0%	-12	-2	-3.6	Arbovirus anti repeat=2
COc1ccccc1Oc1ncnc2c1cnn2-c1ccccc1	12	13%	/	0	-0.8
O=C(CNC(=O)Cc1ccccc1)NCC(=O)OCc1ccccc1	9	-8%	-44	0	1.6
Cc1nn(CC(C)C)c(=S)[nH]c1=O	14	-9%	-19	-6	-0.5
CCOc1ccc(-n2c(-c3ccccc3)c[nH]c2=S)cc1	/	/	/	3	-1.7
